# 2A firefly = FMDV 2A StopGo reporter, firefly signal; HEK cells with a luciferase reporter of 2A StopGo recoding; actives 0.23% (n = 120,000); Potency, µM (series often up to 57.5 µM), for the others: at the highest dose signal change, negative = less light; active = well fitted falling curve with a large enough effect; inconclusive = small, poorly fitted or top-dose-only effect; inactive = no such curve, though single readings can be large or run the other way; further: nearly all actives have a fitted effect of over 60% in size; overnight with compound
# 2A Renilla = FMDV 2A StopGo reporter, Renilla signal; HEK cells with a luciferase reporter of 2A StopGo recoding; Potency, µM (highest dose often 57.5 µM), for inactives: at the highest dose signal change, negative = less light; actives 0.32% (n = 120,000); AID 1745857; active means well fitted falling curve with a large enough effect; inconclusive means small, poorly fitted or top-dose-only effect; inactive means no such curve, though single readings can be large or run the other way; further: nearly all actives have a fitted effect of over 55% in size; overnight with compound
# The depositor's hits bear a star; ? = inconclusive; [ ] = remark or other dose. On the % scale 0 is the no-effect control and ±100 the full control effect; potency means the concentration at half of the fitted maximal effect.
Compound | 2A firefly | 2A Renilla
CCOCCSc1nc2c(c(=O)n(C)c(=O)n2C)n1Cc1ccccc1Cl | 2% | -2%
O=C(c1cccn2c(=O)c3cc(Cl)ccc3nc12)N1CCN(c2ccccc2F)CC1 | -15% | -6%
Nc1c(C(=O)Nc2ccc(Cl)c(C(F)(F)F)c2)sc2nc(-c3ccncc3)ccc12 | -13% | -12%
Cc1nn(C)c(C)c1S(=O)(=O)N(CC(=O)NCCc1ccc(Cl)cc1)c1ccc(C(C)C)cc1 | -2% | 1%
O=C(CSc1nccn1Cc1ccccc1)NC1CCCC1 | 25% | -7%
COc1ccc(/C=C\[N+](=O)[O-])c(OC)c1 | 25% | 8%
Cc1nn(C)cc1NC(=O)c1c(Br)cnn1C | -2% | -12%
Cc1cccc(N2CCN(C(=O)Cn3cnc(S(=O)(=O)N4CCOCC4)c3)CC2)c1C | 7% | 1%
CCN(Cc1ccc(OC)c(F)c1)C(C)c1nnc(-c2ccc(F)cc2)o1 (stereo not given) | 23% | 33%[activator]
O=C(CCCOC(=O)c1cc(Cl)ccc1[N+](=O)[O-])c1ccc(Br)cc1 | ? | ?
COc1ccc(NC(=O)c2c(NCc3sccc3C)sc3c2CCCC3)c(OC)c1 | -4% | 5%
CCOC(=O)C1(C)C=C(Nc2ccc(Br)cc2)C(=O)N1c1ccccc1 (stereo not given) | -27% | -14%
Cc1cccc(C(=O)Nc2ccc(N3CCC(CCN4CCOCC4)CC3)c(C(=O)O)c2)c1 | -6% | 0%
COc1ccc2c(COC(=O)c3cc4ccccc4cc3O)cc(=O)oc2c1 | -5% | -7%
CCOc1cc(/C=C/C(=O)OCc2cccc(C)c2)cc(Cl)c1OC | 5% | 8%
Cc1ccc(Nc2cc(C)nc3c(C)cc(C)c([N+](=O)[O-])c23)cc1 | 17% | 16%
CCn1nc(C(=O)OCc2cc(=O)oc3cc(O)ccc23)c2ccccc2c1=O | 2% | -9%
CCn1c(=O)c2cc(C(=O)N(CCN(C)C)Cc3ccccc3)sc2c2ccccc21 | -13% | 16%
COC(=O)C1(C(=O)/C=C/c2ccc(Cl)cc2)CCCCC1 | ? | ?
Cc1cc(C)c2oc(=O)cc(CN3CCC(C(N)=O)CC3)c2c1 | -5% | -7%
S=C(NNC(=S)NC1CCCCC1)NC1CCCCC1 | 8% | 110%[activator]
CC(=O)c1c(C)[nH]c(C(=O)Cn2c(=O)c3c(ncn3CC(C)C)n(Cc3ccccc3)c2=O)c1C | 12% | 20%
Cc1ccc(S(=O)(=O)Nc2ccc(-c3ccc(N4CCCCCC4)nn3)cc2)cc1C | 143%[activator] | 137%[activator]
CCOCCCNC(=O)c1ccc2c(=O)n(CCc3ccccc3)c(=O)[nH]c2c1 | 19% | -3%
Cc1oc2cc(OCC(=O)N3CCCCC3)ccc2c(=O)c1-c1ccc(Cl)cc1 | 27% | 5%
COc1ccc(CNS(=O)(=O)c2ccc3c(c2)C(C)(C)C(=O)N3C)cc1OC | -8% | 29%
Cc1c(CC(=O)Nc2ccc(Cn3cncn3)cc2)c(=O)oc2cc(O)ccc12 | 1% | -7%
COC(=O)COc1ccc2c(C)c(-c3ccc(OC)c(OC)c3)c(=O)oc2c1 | 23% | 4%
COc1ccccc1-c1nc(C#N)c(N2CCN(C(=O)c3ccco3)CC2)o1 | 0% | 42%
COc1ccc(CCNC(=O)c2ccc3c(c2)sc2nc(-c4ccccc4)cn23)cc1OC | 24% | -13%
O=C(Nc1ccc2oc(-c3ccc4ccccc4c3)nc2c1)c1ccc(Cl)c(Cl)c1 | 42%[activator] | -2%
CC(C)c1ccccc1NC1=NS(=O)(=O)c2ccccc21 | 2% | 21%
Cc1c(C(=O)NCC(C)C)nnn1-c1ccc(Br)cc1 | 168%[activator] | 5%
CCOc1ccc(-n2c(/C=C/c3cccc(F)c3)nc3cc(OC)c(OC)cc3c2=O)cc1 | ? | ?
CCNC(=O)c1cccc(NC(=O)C2CCCC2)c1 | 2% | 24%
CCc1ccc(-c2ccc(C(=O)Oc3ccc(Br)cc3)cc2)nc1 | 2% | 2%
Cc1c(OCc2ccc(C(C)(C)C)cc2)ccc2c(-c3ccccc3)cc(=O)oc12 | -3% | 6%
CCN1C(=O)C2(C(C(=O)c3ccc(C)o3)=C(O)C(=O)N2CCN2CCOCC2)c2ccccc21 (stereo not given) | -8% | -11%
Cc1ccc2c(CN3C(=O)NC4(CCCC4)C3=O)cc(=O)oc2c1 | 32%[activator] | 10%
O=C(NCc1cccc(Cl)c1)c1cc2cc(Cl)ccc2[nH]1 | 29% | 198%[activator]
Cc1nc(-c2cccc(N3CC(C(=O)Nc4cccc(C(F)(F)F)c4)CC3=O)c2)no1 (stereo not given) | 4% | -2%
O=[N+]([O-])c1c(NC2CCN(C3CC3)CC2)ccc2ncccc12 | 71%[activator] | ?
CCn1c(=O)c2c(nc(-n3nc(C)cc3C)n2Cc2c(F)cccc2Cl)n(C)c1=O | 25% | 26%
O=C(NCCc1ccc(Cl)cc1)C1CC2CCC(C1)C21SCCS1 (stereo not given) | 0% | 8%
O=C(/C=C/c1ccco1)NC1CCC(c2ccccc2)CC1 (stereo not given) | 52%[activator] | -4%
COCCN1C(=O)c2[nH]nc(-c3ccccc3O)c2C1c1ccc(Cl)c(Cl)c1 (stereo not given) | 6% | 10%
CC(=O)OCC(CCn1cnc2cnc(N)nc21)COC(C)=O | -15% | -8%
COc1ccc(C(=O)N2CCN(c3nc4c(OC)cccc4s3)CC2)cc1OC | ? | ?
N#CCCCCOC(=O)c1ccc(Oc2ccc(C(=O)OCCCCC#N)cc2)cc1 | 0% | -10%[1.06 µM]
CCN1C(=O)c2ccccc2Sc2ccc(NC(=O)Nc3cccc([N+](=O)[O-])c3C)cc21 | -8% | -20%
O=C(CCc1ccccc1)NCC12CC3CC(CC(C3)C1)C2 | 0% | 20%
Cc1ccc(NC(=O)C(Cc2c[nH]c3ccccc23)NC(=O)OC(C)(C)C)c(C)c1 (stereo not given) | 3% | -7%
CC(C)Cn1c(N2CCN(CCCc3ccccc3)CC2)nc2c1c(=O)[nH]c(=O)n2C | -8% | -10%
Cc1nc2ccccc2n1CCc1nc2c3ccccc3nc(SCC(=O)Nc3ccc(Br)cc3F)n2n1 | -18% | -15%
O=C(CN1C(=O)CN=C(c2ccccc2F)c2cc(Cl)ccc21)Nc1ccccc1C(F)(F)F | -4% | 23%
NC(=O)c1ccc(NC(=O)/C=C/c2ccc(Cl)c(C(F)(F)F)c2)cc1 | 12% | 8%
CCCn1nc(C(=O)OCCOc2c(Cl)cccc2Cl)c2ccccc2c1=O | 4% | 1%
COC(=O)c1ccc(NC(=O)CSc2nc3cc4ccccc4cc3[nH]2)cc1 | 6% | -9%
COC(=O)c1ccccc1NC(=O)Cc1noc2ccc(C)cc12 | -9% | -7%
COc1ccc(CC(=O)NC(C)c2nnc(SCc3ccc(Cl)cc3Cl)n2C)cc1 (stereo not given) | -13% | 8%

# (more compounds)
# Second line of a record – 2A firefly | 2A Renilla
- Fc1cccc(-c2nc(COc3ccc(Br)cc3F)co2)c1
    70%[activator] | 0%
- O=C(Nc1ccc2c(c1)OCO2)c1cc(-c2ccc(Cl)cc2)on1
    -5% | -4%
- CC(C)(C)OC(=O)N1CCC(c2c(C(=O)NCc3ccco3)cnn2-c2ccc(F)cc2)CC1
    -18% | 6%
- CCOCc1ccccc1CNS(=O)(=O)c1cc(Cl)cc(Cl)c1
    14% | 266%[activator]
- COC(=O)Cn1c(=O)c2c(nc(-n3nc(C)cc3C)n2Cc2ccc(F)cc2)n(C)c1=O
    -10% | -10%
- O=C(O)Cn1cc(C(C(=O)O)N2CCN(c3ccccc3)CC2)c2ccc(F)cc21 (stereo not given)
    0% | -16%
- Cc1cc(C(=O)OC(C)C(=O)Nc2cc(C)on2)c2ccccc2n1 (stereo not given)
    14% | 13%
- COc1cc(OC)c(NC(=O)Cn2cnc3c(nc4n3CCCCC4)c2=O)cc1Cl
    -21% | 12%
- CCN(C(=O)Cn1c(C(=O)OC)cc2sccc21)c1cccc(C)c1
    -13% | -10%
- CCN(CC)CCNC(=O)c1cc(C)nc2c(C)cccc12
    -17% | -22%

# Record cards, as listed above.
# COC(=O)c1ccccc1NC(=O)Cc1noc2ccc(C)cc12 as listed: 2A firefly = -9%; 2A Renilla = -7%
# O=C(NCCc1ccc(Cl)cc1)C1CC2CCC(C1)C21SCCS1 (stereo not given) as listed: 2A firefly = 0%; 2A Renilla = 8%
# CC(C)Cn1c(N2CCN(CCCc3ccccc3)CC2)nc2c1c(=O)[nH]c(=O)n2C as listed: 2A firefly = -8%; 2A Renilla = -10%

# Next part:
# Second line of a record – 2A firefly | 2A Renilla
- COC(=O)c1ccc(NC(=O)c2ccc(CNC(=O)OC(C)(C)C)cc2)cc1
    -1% | 4%
- C=CCOc1ccccc1N
    9% | 0%
- Cc1ccccc1OCC(=O)Nc1ccc(C(=O)OCc2cc(=O)n3ccsc3n2)cc1
    1% | -11%
- CC(C)C(C)(C#N)NC(=O)CSc1n[nH]c(-c2ccc(Br)cc2)n1 (stereo not given)
    7% | 1%
- O=C(NCc1ccco1)c1nn(Cc2ccccc2)c(=O)c2ccccc12
    8% | 103%[activator]
- Clc1ccc(Nc2nc(NCC3CCCO3)nc3c2cnn3-c2ccccc2)cc1 (stereo not given)
    3% | -2%
- COCCNc1oc(-c2ccc(COc3ccc(OC)cc3)o2)nc1C#N
    40%[activator] | 23%
- CCc1cccc2sc(N3CCN(C(=O)c4cc5ccccc5cc4OC)CC3)nc12
    -6% | -9%
- Cc1cc(F)ccc1NC(=O)CCS(=O)(=O)c1cc2c(cc1C)NC(=O)CO2
    5% | -4%
- CCN(CC)S(=O)(=O)c1ccc2[nH]c(=O)cc(C(=O)N(C)Cc3ccccc3C)c2c1
    -11% | 225%[activator]

# Three compounds from above, arranged by count of non-hydrogen atoms, ascending:
# Second line of a record – 2A firefly | 2A Renilla
- COc1ccc(/C=C\[N+](=O)[O-])c(OC)c1
    25% | 8%
- Clc1ccc(Nc2nc(NCC3CCCO3)nc3c2cnn3-c2ccccc2)cc1 (stereo not given)
    3% | -2%
- CC(=O)c1c(C)[nH]c(C(=O)Cn2c(=O)c3c(ncn3CC(C)C)n(Cc3ccccc3)c2=O)c1C
    12% | 20%

# Other compounds follow.
# Second line of a record – 2A firefly | 2A Renilla
- COc1ccc(-c2noc(-c3cc(C(C)C)[nH]n3)n2)cc1
    81%[activator] | 3%
- COc1ccc(-n2nc3ccc(NC(=O)c4c(OC)cccc4OC)cc3n2)cc1
    74%[activator] | 53%[activator]
- CNC(=S)NNC(=O)C1CCCCC1
    2% | 0%
- O=C(Cn1cnc2ccccc2c1=O)N1CCN(c2ccc(Cl)cc2)CC1
    -6% | -16%
- O=C(NCc1ccccc1)C1CCN(S(=O)(=O)/C=C/c2ccccc2)CC1
    -18% | -5%
- CCOc1cccc(-c2cc(C(=O)NCCCN3CCOCC3)c3ccccc3n2)c1
    14% | 10%
- Clc1ccc(NCc2nnc3n2CCCCC3)cc1Cl
    71%[activator] | -2%
- Cc1c(C(=O)NC(C)c2ccc(F)c(F)c2)[nH]c2c1C(=O)CC(C)(C)C2 (stereo not given)
    -7% | 119%[activator]
- O=C1Cc2cc(S(=O)(=O)N3CCN(C(=O)Nc4ccccc4)CC3)ccc2N1
    13% | -7%
- CCOC(=O)CNC(=O)c1ccc(NC(C)=O)cc1
    161%[activator] | 22%
- O=C(CSc1nc2c([nH]c3ccccc32)c(=O)n1-c1ccccc1)N1CCOCC1
    -11% | -10%
- N#CC1=C(N)Oc2n[nH]c(-c3ccccc3)c2C12C(=O)N(Cc1ccc(Cl)cc1)c1ccccc12 (stereo not given)
    ? | ?
- CCc1ccc(CN(C(=O)c2cc(=O)c3cc(C)cc(C)c3o2)C2CCS(=O)(=O)C2)cc1 (stereo not given)
    -3% | 32%[activator]
- Cc1ccc(C)c(NC(=O)c2cc(=O)c3cc(C)cc(C)c3o2)c1
    -15% | 2%
- CC(=O)Nc1ccc2c(C(C(=O)O)N3CCN(C(C)=O)CC3)c[nH]c2c1 (stereo not given)
    0% | 3%
- Cc1[nH]c(=S)sc1Cc1cccc(C(F)(F)F)c1
    -12% | 5%
- Cc1ccc(OCc2nc3ccccc3n2CCOc2ccc(Cl)cc2)cc1
    ? | ?
- O=C(Nc1ccc(F)cc1F)c1noc2c1CCc1ccccc1-2
    215%[activator] | -11%
- Cc1c(C(=O)C(=O)Nc2ccc(C(N)=O)cc2)c2ccccc2n1C
    1% | 15%
- O=C(/C=C/C(=O)c1ccc(Cl)cc1)c1ccccc1
    211%[activator] | 16%
- CCOc1cc(Cl)c(S(=O)(=O)n2ccnc2)cc1Cl
    -11% | -1%
- CC1=C(C(=O)Nc2ccccc2Cl)C(c2cccc(O)c2)n2ncnc2N1 (stereo not given)
    -16% | -6%
- Cc1ccc2c(c1)c1c(c(=O)n(-c3ccccc3C)c(=O)n1CC(=O)N1CCCC1)n2C
    -2% | -6%
- CC1=C(C(=O)Nc2ccccc2C)C(c2ccc(C(F)(F)F)cc2)n2ncnc2N1 (stereo not given)
    -1% | 2%
- COc1cccc(-c2ccnc3c2c(=O)[nH]c(=O)n3Cc2ccco2)c1
    -3% | 1%

# 2 records drawn at random from those above, as already listed:
# Second line of a record – 2A firefly | 2A Renilla
- CCOc1cc(Cl)c(S(=O)(=O)n2ccnc2)cc1Cl
    -11% | -1%
- COc1cccc(-c2ccnc3c2c(=O)[nH]c(=O)n3Cc2ccco2)c1
    -3% | 1%

# Screens from PubChem.
